# Screening results deposited in PubChem BioAssay by National Center for Advancing Translational Sciences (NCATS).
# StopGo RLuc – FMDV 2A StopGo reporter, Renilla signal | AID 1745857 | HEK cells with a luciferase reporter of 2A StopGo recoding | 120,000 tested, 0.32% active | Potency, µM (top dose mostly 57.5 µM), for the others: top-dose signal change, negative = less light; active means well fitted falling curve with a large enough effect; inconclusive means small, poorly fitted or top-dose-only effect; inactive means no such curve, though single readings can be large or run the other way; also: nearly all actives have a fitted effect of over 55% in size; overnight with compound
# StopGo FLuc – FMDV 2A StopGo reporter, firefly signal; HEK cells with a luciferase reporter of 2A StopGo recoding; Potency, µM (highest dose often 57.5 µM), for inactives: at the highest dose signal change, negative = less light; 120,000 tested, 0.23% active; active = well fitted falling curve with a large enough effect; inconclusive = small, poorly fitted or top-dose-only effect; inactive = no such curve, though single readings can be large or run the other way; also: nearly all actives have a fitted effect of over 60% in size; overnight with compound
# * marks the source's active call; other numbers are inactive results; ? = inconclusive; & = joins results of further samples; [ ] = another dose, or the depositor's remark. % is scaled to controls: 0 for no effect and ±100 for the full control effect; potency is read from the fitted curve at half-maximal effect.
SMILES,StopGo RLuc,StopGo FLuc
Cc1ccc2cc(C(=O)N(Cc3ccco3)C3CC3)[nH]c2c1,43%[activator],0%
CC(C)N1CCC(NC(=O)c2ccccc2C(=O)c2ccc(F)cc2)CC1,-16%,-14%
O=C(Nc1ccc(Cl)cc1)c1cccc(S(=O)(=O)C2CCS(=O)(=O)C2)c1 (stereo not given),?,?
CCOC(=O)CN1C(C(=O)c2ccccc2)=C(OC(=O)c2ccco2)c2ccccc2S1(=O)=O,12%,10%
Oc1ccc(O)c([S+]2CCCCC2)c1,3%,-2%
Cc1ccccc1NC(=S)N/N=C/c1ccccc1[N+](=O)[O-],61%[activator],158%[activator]
CCC(=O)N1CCc2cc(CNC(=O)C(CC)c3ccccc3)ccc21 (stereo not given),-12%,-3%
Cc1c(C(=O)NCc2cccc(Cl)c2)sc2nc3n(c(=O)c12)CCC3,2%,69%[activator]
O=C(c1cc(N2CCCCCC2)nc2ccccc12)N1CCOCC1,191%[activator],19%
COc1ccc(C)cc1NC(=O)c1cc2c(=O)n3cccc(C)c3nc2s1,20%,26%
CC(C)(C)c1ccc(OCCSc2nc(-c3cccs3)nc3cc(=O)[nH]n23)cc1,-3%,-12%
CN(C)c1ccc(CNC(=O)c2ccc3nc(CCc4ccccc4)oc3c2)cc1,0%,18%
Clc1ccc(-c2noc3ncnc(NC4CCCCC4)c23)cc1,-7%,-10%
O=C(COC(=O)C1C=CCCC1)c1ccc([N+](=O)[O-])cc1 (stereo not given),-12%,35%[activator]
CN(CC(=O)NC(=O)NCc1ccccc1)Cc1ccc(C(F)(F)F)cc1,-13%[1.06 µM],-16%
COc1ccc(-n2c(=O)c3c4c(sc3n(Cc3cc(C)ccc3C)c2=O)CN(C(C)=O)CC4)c(OC)c1,33%[activator],7%
COc1ccc(C(=O)Nc2ccccc2C(=O)OCc2cc(=O)n3nc(C4CC4)sc3n2)cc1,18%,17%
CCOc1cc(COC(=O)c2cccc(S(=O)(=O)N3CCCC3)c2)ccc1OC(F)F,16%,13%
Cc1nnc2ccc(SCC(=O)Nc3c(F)cccc3F)nn12,7%,-3%
O=S(=O)(Nc1cccc2c1CCCC2)c1cccc(F)c1,91%[activator],40%[activator]
CCCCNC(=O)C(CC)Sc1nnc(-c2ccc(F)cc2)c(-c2ccc(F)cc2)n1 (stereo not given),-16%,3%
Cc1ccc2c(N)c(C)ccc2n1,-1%,42%[activator]
Cc1ccc(NC(=O)CCC2CCCC2)cc1C,67%[activator],122%[activator]
COc1cccc(OC)c1C(=O)N1CCN(Cc2cc(=O)oc3cc(C)ccc23)CC1,-7%,0%
CCN1C(=O)c2ccccc2S(=O)c2ccc(C(=O)N3CCN(c4cccc(C)c4)C(C)C3)cc21 (stereo not given),16%,1%
O=C1c2ccc(-c3nc4ccccc4o3)cc2C(=O)N1Cc1ccncc1,-2%,0%
CCOc1ccccc1CNC(=O)CCCn1ccc2cc(S(=O)(=O)N3CCCC3)ccc21,0%,-23%
NS(=O)(=O)c1ccc(Cl)c(S(N)(=O)=O)c1,7%,17%
C=C(C)Cn1c(SCC(N)=O)nc2c1c(=O)[nH]c(=O)n2C,16%,23%
COc1ccc(CNC(=O)C(=O)NCC(c2cccs2)S(=O)(=O)c2cccs2)cc1 (stereo not given),11%,-12%
Cc1ccc(-c2[nH]c3ccccc3c2SCCNC(=O)c2ccc(S(=O)(=O)N(C)C)cc2)cc1,-12%,-25%
CC(=O)c1ccc(N2CCN(C(=O)C3CCCN(S(=O)(=O)c4ccc(Br)s4)C3)CC2)cc1 (stereo not given),-16%,23%
CCOC(=O)c1cnn(-c2cccc(Cl)c2)c1C1CCN(C(=O)OC(C)(C)C)CC1,-4%,-19%
Cc1ccc2c(c1)SC(C(=O)Nc1ccc(C)c(S(N)(=O)=O)c1)C2 (stereo not given),-20%,0%
Cc1ccc(C(=O)COC(=O)c2cccc(NC(=O)c3ccc(Br)cc3)c2)cc1,-6%,41%[activator]
O=C(CS(=O)(=O)Cc1coc(-c2ccccc2)n1)N1CCCC1,-12%,7%
CCc1noc(CN2CCN(c3cc(C)nc(C(C)C)n3)CC2)n1,-3%,5%
Cc1ccsc1/C=N/NC(=O)c1cccc2ccccc12,6%,82%[activator]
CC(=O)C1=C(O)C(=O)NC1c1ccccc1F (stereo not given),0%,2%
COc1ccc(C)cc1NC(=O)c1cc2ccccc2cc1OCC(N)=O,-4%,4%
CC(C)C(NC(=O)c1ccc(-c2ccccc2)cc1)C(=O)O (stereo not given),-2%[1.06 µM],58%[activator]
COc1ccc(OC)c(N(CC(=O)NCc2ccccc2)S(=O)(=O)c2ccccc2)c1,59%[activator],8%
Cc1ccc(C(=O)c2cn(Cc3ccccc3)c3ccccc3c2=O)cc1,19%,-25%
CCOc1ccc(C(=O)NCCc2csc(-c3cccc(F)c3)n2)cc1OCC,58%[activator],1%
CN(C)C(CNC(=O)Cc1n[nH]c(=O)c2ccccc12)Cc1ccccc1 (stereo not given),-7%,30%
CCOC(=O)N1CCN(Cc2nc3c(c(=O)[nH]c(=O)n3C)n2CC(C)C)CC1,-5%,6%
Cc1ccc(N(CC(O)CN2CCCC2)S(=O)(=O)c2ccc(C)cc2)cc1 (stereo not given),-17%,-22%
COc1ccc(-c2noc(CCC(=O)Nc3ccn(C)n3)n2)cc1OC,-4%,17%
COc1cccc(CNC(=O)CN2C(=O)C(C)=C(c3ccc(C)c(C)c3)S2(=O)=O)c1,5%,3%
Cc1ccc(C2C3=C(CC(C)(C)CC3=O)Nc3c2c(=O)n(C)c(=O)n3C)cc1 (stereo not given),47%[activator],-6%
O=C(CSc1nc(-c2ccc(F)cc2)[nH]c1-c1ccccc1)Nc1ccccc1,50%[activator],0%
O=C(O)CC1C(=O)NCCN1Cc1ccc(F)cc1Cl (stereo not given),-15%,-18%
CCOc1ccc(NC(=O)C(=O)c2c[nH]c3ccccc23)cc1,16%,195%[activator]
Cc1cc(C)c2oc(C(=O)N3CCOC34CCN(C)CC4)cc(=O)c2c1,-3%,38%[activator]
Cc1ccc(OCc2nc(C#N)c(N(C)Cc3ccccc3)o2)cc1,17%,20%
Cc1cc(C)c(S(=O)(=O)N2CCC(C(=O)NCCc3csc(-c4ccccc4)n3)CC2)c(C)c1,-2%,?
COc1ccc(-n2nnnc2C2CCN(S(=O)(=O)c3ccc(C)cc3)CC2)cc1,1%,-19%
Cc1cc(C)c2oc(C(=O)Nc3ccc(S(=O)(=O)Nc4onc(C)c4C)cc3)cc(=O)c2c1,-14%,-4%
COC(=O)CNC(=O)c1ccc2ccccc2c1,12%,84%[activator]
COc1ccc(NC(=O)C2COc3ccccc3C2)cc1Cl (stereo not given),50%[activator],47%[activator]
# Additional entries follow:
SMILES,StopGo RLuc,StopGo FLuc
COC(=O)C1=C(C)N(c2ccc3c(c2)OCO3)C(=O)NC1c1c(F)cccc1Cl (stereo not given),-9%,-9%
C/C=C/c1ccc(OCC(=O)N2CCN(S(=O)(=O)c3cc(OC)ccc3OC)CC2)c(OC)c1,4%,-11%
COc1ccc2c(c1)CC(C(=O)NCCCN1CCN(c3ccccc3F)CC1)CO2 (stereo not given),-5%,-9%
Cc1ccc(NC(=O)c2nnn(Cc3cccc(C(F)(F)F)c3)c2N)c(C)c1,49%[activator],0%
CC1=CCCC(C)(C)C1/C=C/C(C)=N\Nc1nc2ccccc2[nH]1 (stereo not given),?,-26%
O=C(c1ccc2cc[nH]c2c1)N1CCC(C(=O)N2CCCCC2)CC1,20%,56%[activator]
COCCn1c(SC(C)C(=O)c2ccc(Br)cc2)nnc1-c1cccc(C)c1 (stereo not given),60%[activator],-13%
CC(Oc1cccc(Cl)c1)C(=O)NCCc1ccccn1 (stereo not given),3%,10%
CCN(CC)CCN1C(=O)C(O)=C(C(=O)c2sc(C)nc2C)C1c1ccc(C(=O)OC)cc1 (stereo not given),-8%,-4%
COc1ccc(NC(=O)Cn2c(SCc3cccc(C)c3)nc3ccncc32)c(OC)c1OC,-6%,22%
COc1cc(OC)cc(-c2nc3nc(C)c(CCC(=O)Nc4cc(F)ccc4F)c(C)n3n2)c1,5%,-21%
COCCn1cnnc1SCc1cccc(F)c1,9%,5%
CCCCN(CC)Cc1c(C)[nH]c2c(C)cc(C)cc2c1=O,-6%,-3%
CN(CC(=O)Nc1cc2[nH]c(=O)[nH]c2cc1Br)Cc1ccccc1N1CCCCC1,-20%,-17%
O=C(O)CCNS(=O)(=O)c1ccc(F)cc1,4%,0%
COc1cc(-c2nc3c(c(=O)[nH]c(=O)n3Cc3ccccc3)n2CC(C)C)ccc1O,32%,9%
COc1ccc(C2CCCN2Cc2cc(=O)oc3cc(C)c(C)cc23)cc1 (stereo not given),-5%,23%
Cn1c(=O)c2c(ncn2CC(=O)Nc2ccccc2C(=O)NC2CCCCC2)n(C)c1=O,-11%,-6%
CC(C)c1ccc(/C=C(/C#N)c2nc3ccccc3o2)cc1,38%[activator],219%[activator]
Cc1ccc2c(C)c(CCC(=O)Nc3cccc(Cl)c3)c(=O)oc2c1,-4%,5%
Cc1nc2ccc(Cl)cc2cc1C(=O)NCc1ccc(C(N)=O)cc1,-8%,7%
CCCc1cc(=O)[nH]c(-n2nc(C)cc2NC(=O)c2ccc(S(=O)(=O)N(CC)CC)cc2)n1,-28%,-2%
CC(C#N)OC(=O)c1cc(C(C)C)nc2ccccc12 (stereo not given),-4%,-10%
COc1ccc(CCN[C@H]2CS(=O)(=O)C[C@@H]2S(=O)(=O)c2ccc(C)cc2)cc1OC,-16%,-7%
CCOc1ccccc1NC(=O)CN1C(=O)COc2ccc(S(=O)(=O)N3CCOCC3)cc21,-8%,-19%
N#Cc1c(N)n[nH]c1CCCNC(=O)c1cn(Cc2ccccc2)nc1-c1ccccc1,-9%[1.06 µM],20%
Cc1ccc(C2=CCN(Cc3oc(CO)cc(=O)c3O)CC2)cc1,-7%,-4%
COc1cccc(C2C3=C(CC(C)(C)CC3=O)Nc3cc4c(cc32)OCO4)c1OC (stereo not given),14%,-4%
COC(=O)c1cc2occc2n1CC(=O)Nc1cccc(SC)c1,-13%,-11%
O=c1cc(-c2cc3ccccc3o2)c2cc3c(cc2o1)CCCC3,0%,6%
O=C(Nc1cccc2ncccc12)C1CCCN(S(=O)(=O)c2ccc(Br)cc2)C1 (stereo not given),8%,12%
COc1ccc(N(CC(=O)NCCc2ccc(Cl)cc2)S(=O)(=O)c2c(C)nn(C)c2C)cc1,2%,-24%
CN(C(=O)CSc1nc(-c2ccccc2)no1)c1ccc(F)cc1,6%,59%[activator]
CNC(=O)C1CCN(c2nc3ccccc3nc2C(F)(F)F)CC1,-9%,-8%
COc1ccccc1NC(=O)N1CCOc2ccccc21,5%,21%
CCCCn1c(SCC(=O)Nc2ccc3c(c2)OCCO3)nc2c(-c3ccccc3)c[nH]c2c1=O,58%[activator],42%[activator]
CCOc1ccc(C(=O)Nc2cc(-c3nc4ccccc4s3)ccc2OC)cc1,-8%,11%
Cc1[nH]nc2c1C(c1c(F)cccc1Cl)C1=C(COC1=O)N2 (stereo not given),17%,7%
O=C(O)/C=C/C(=O)c1ccc(Br)cc1,-7%,19%
O=C1CCSc2c1cccc2C(=O)Nc1ccc(F)cc1Cl,19%,9%
CC(=O)Nc1nc2n(n1)C(c1ccccc1)C=C(c1ccccc1)N2 (stereo not given),2%,19%
Fc1ccc(SCCc2ccccn2)cc1,-10%&-2%,113%&0%[activator]

# Structures shown so far with an aryl thioether with sulfur outside any ring (13):
SMILES,StopGo RLuc,StopGo FLuc
CC(C)(C)c1ccc(OCCSc2nc(-c3cccs3)nc3cc(=O)[nH]n23)cc1,-3%,-12%
Cc1nnc2ccc(SCC(=O)Nc3c(F)cccc3F)nn12,7%,-3%
CCCCNC(=O)C(CC)Sc1nnc(-c2ccc(F)cc2)c(-c2ccc(F)cc2)n1 (stereo not given),-16%,3%
C=C(C)Cn1c(SCC(N)=O)nc2c1c(=O)[nH]c(=O)n2C,16%,23%
Cc1ccc(-c2[nH]c3ccccc3c2SCCNC(=O)c2ccc(S(=O)(=O)N(C)C)cc2)cc1,-12%,-25%
O=C(CSc1nc(-c2ccc(F)cc2)[nH]c1-c1ccccc1)Nc1ccccc1,50%[activator],0%
COCCn1c(SC(C)C(=O)c2ccc(Br)cc2)nnc1-c1cccc(C)c1 (stereo not given),60%[activator],-13%
COc1ccc(NC(=O)Cn2c(SCc3cccc(C)c3)nc3ccncc32)c(OC)c1OC,-6%,22%
COCCn1cnnc1SCc1cccc(F)c1,9%,5%
COC(=O)c1cc2occc2n1CC(=O)Nc1cccc(SC)c1,-13%,-11%
CN(C(=O)CSc1nc(-c2ccccc2)no1)c1ccc(F)cc1,6%,59%[activator]
CCCCn1c(SCC(=O)Nc2ccc3c(c2)OCCO3)nc2c(-c3ccccc3)c[nH]c2c1=O,58%[activator],42%[activator]
Fc1ccc(SCCc2ccccn2)cc1,-10%&-2%,113%&0%[activator]
